AmpC nodet inh: Promiscuous and Specific Inhibitors of AmpC Beta-Lactamase (assay without detergent); P00811; AmpC nitrocefin hydrolysis, absorbance 480 nm, no detergent; potencies from a single point are estimates; Potency, µM (highest dose often 28.7 µM), without a hit: top-dose activity change, negative = inhibition; 1.8% of 71,000 active; AID 585, 2007; active = falling curve, for most hits resting on a single point; inconclusive = weak or doubtful change; inactive = flat or rising curve; also: % of control where 0% means no effect; about half of the hits show no inhibition at the top dose; a quarter of the inactives give rising signals
Target sequence (P00811 whole entry, looked up): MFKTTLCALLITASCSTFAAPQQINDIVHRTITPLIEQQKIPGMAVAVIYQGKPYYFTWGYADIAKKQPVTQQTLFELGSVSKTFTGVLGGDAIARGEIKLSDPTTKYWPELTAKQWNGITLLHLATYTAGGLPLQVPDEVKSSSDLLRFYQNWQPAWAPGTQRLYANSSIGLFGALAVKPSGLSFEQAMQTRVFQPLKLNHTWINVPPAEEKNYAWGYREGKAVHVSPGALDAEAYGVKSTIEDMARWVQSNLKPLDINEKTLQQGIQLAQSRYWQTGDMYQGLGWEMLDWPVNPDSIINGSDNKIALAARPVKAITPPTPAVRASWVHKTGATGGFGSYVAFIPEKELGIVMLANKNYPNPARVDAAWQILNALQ
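Enzyme, pH 7.0 phosphate. Compound titrations were pre-incubated with AmpC for 15 min at room temperature before nitrocefin (stock 800 uM) addition; product formation was recorded at 480 nm every 20 s for 4 min.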
* = called active by the depositor; ? = inconclusive; [ ] = remark or other dose. Potency is read from the fitted curve at half-maximal effect. A portion of the library, so the mix of outcomes need not match the whole.

SMILES	AmpC nodet inh
COc1ccc(/C=C/c2cc(OC)cc(=O)o2)cc1	16.2%
Cn1c(N)c(C(=O)COC(=O)C2(c3ccccc3F)CCCC2)c(=O)n(C)c1=O	87.7%
CCCCOc1ccc(-c2c(C#N)c(N)nc(SCC(N)=O)c2C#N)cc1	20µM*[single pt active]
COc1ccccc1S(=O)(=O)n1cc(Cc2ccccc2)c(N)n1	-12.0%
CCOC(=O)N1CCC(NC(=O)c2ccc3c(c2)N(C)CCS3)CC1	48.5%
O=C(Nc1ccc2c(c1)OCO2)c1cccs1	-7.3%
CCOC(=O)c1ccc(CNC(=O)CSc2nnnn2-c2ccc(Cl)cc2)o1	25.0%
CN(C)C(=O)C(CCN1CCC(O)(c2ccc(Cl)cc2)CC1)(c1ccccc1)c1ccccc1	83.0%
O=C(c1ccc(CS(=O)(=O)c2ccc(Br)cc2)o1)N1CCCCCC1	3.16µM*[single pt active]
Cc1ccc(NC(=O)Cn2nc(C)c3ccccc3c2=O)cc1F	9.7%
CCOC(=O)c1oc2nc(C)c3c(c2c1N)CC(C)(C)OC3	-2.2%
COc1ccc(-c2c(C)oc3c(CN4CCCCC4C)c(O)ccc3c2=O)cc1OC (centres undefined)	47.2%
O=C(c1ccccc1Cl)N1CCc2ccccc2C1	11.2%
COc1ccc(N(CC(=O)Nc2cccc(C)c2C)S(=O)(=O)c2c(C)n[nH]c2C)cc1	61.2%
CC(C)(C)NC(=O)CN1CCC(O)(c2ccccc2)CC1	-2.3%
CCN(CCCNC(=O)COc1cc(=O)n(CC)c2ccccc12)c1ccccc1	118.8%
CCCn1c(=O)n(C)c(=O)c2c(SCc3cc(C(C)=O)ccc3OCC)nc(C3CC3)nc21	44.8%
Cc1ccc(-c2ccc(=O)[nH]n2)cc1	-11.6%
Cc1cc(C)nc(N2CCCC(C(=O)NCc3cccs3)C2)n1 (centres undefined)	17.4%
Cc1ccc2c(c1)N(C(C)C(=O)NCCc1ccccc1)C(=O)CO2 (centres undefined)	16.8%
O=C1CC(N2CCN(c3ccccc3)CC2)C(=O)N1c1ccc2c(c1)OCCO2 (centres undefined)	56.2%
O=C(CN1c2cccc3cccc(c23)S1(=O)=O)NCc1ccc2c(c1)OCO2	-19.6%
CCc1cc(=O)oc2cc(OC(C)=O)cc(OC(C)=O)c12	-0.8%
COCC(=O)N1CCC[C@@]2(CCN(C(=O)Nc3ccc(OC)cc3)C2)C1	6.5%
O=C(COc1nnc2ccccn12)N1CCN(S(=O)(=O)c2ccccc2)CC1	-0.2%

Continuation:
SMILES	AmpC nodet inh
Cn1c(NC(=O)CC(C)(C)C)cc(=O)n(C)c1=O	2.9%
CC1CN(S(=O)(=O)c2ccc(NC(=O)c3cc(-c4ccccc4O)n[nH]3)cc2)CC(C)O1 (centres undefined)	2.5%
COC(=O)c1c(NC(=O)c2ccc(Br)s2)sc2c1CCC2	?
CCCCNC(=O)CN1C(=O)C(CC)Oc2ccc(Cl)cc21 (centres undefined)	5.6%
CC1CCN(c2oc(-c3ccccc3F)nc2C#N)CC1	11.5%
CCCCCSc1nnc(-c2cc(Br)ccc2N)c(=O)[nH]1	-12.5%
COCC(=O)N1CCC2(CC1)CN(C(=O)Nc1cccc(C#N)c1)C2	39.8%
O=C(CN1C(=O)c2ccccc2S1(=O)=O)NCc1ccccc1Cl	-8.7%
CCOC(=O)C1C(=O)NC(C)C1c1ccccc1 (centres undefined)	2.0%
Clc1ccc(CN2CCCN(Cc3ccc(Cl)cc3)C2c2cc3ccccc3c3ccccc23)cc1	-1.8%[5.75 µM]
CCn1nnc(NC(=O)c2c(OC)cccc2OC)n1	1.0%
O=C(N1CCOCC1)C1(c2ccccc2)CCNCC1	-12.3%[5.75 µM]
CCOC(=O)c1cnc2c(C)cccc2c1NCc1ccco1	51.4%
COc1ccccc1N1CCN(C[C@@H](C(=O)NC(C)(C)C)c2ccccc2)CC1	52.0%
Cc1ccc(N(C(=O)Cn2nnc3ccccc32)C(C(=O)NCc2ccco2)c2cccnc2)cc1 (centres undefined)	56.1%
Cc1ccc2c(c1)c1c(n2CC(O)Cn2nc(C)c(Br)c2C)C(=O)CCC1 (centres undefined)	66.8%
Cc1ccc(C(C(=O)NC2CCCC2)N(Cc2ccc(F)cc2)C(=O)c2csnn2)o1 (centres undefined)	41.0%
CCSC1=C(C#N)C(c2ccc(C)s2)CC(=O)N1 (centres undefined)	-0.8%
NCCc1nc(-c2nc(C(=O)O)cs2)cs1	2.0%[5.75 µM]
COC(=O)C1=C(C)N(Cc2ccco2)C(=O)C1	47.6%
Clc1ccccc1CNc1ncnc2nc[nH]c12	19.6%
COc1cccc(NC(=O)N2CCCC2C(=O)NC(C)C)c1 (centres undefined)	-12.0%
CCOC(=O)c1cc(NC(=O)c2c(C)noc2C)cc(C(=O)OCC)c1	41.5%
CCCC1(CCC)NC(=O)N(CC(=O)Nc2cccc(OC)c2)C1=O	14.2%
COc1cc(C(=O)O[C@@H]2CC(C)=CC[C@@]3(C)CC[C@](O)(C(C)C)[C@H]23)ccc1O	-15.0%

Following part.
SMILES	AmpC nodet inh
O=C(C1CC1)N1CCN=C1SCc1ccccc1Cl	1.1%
O=C(CSc1nc2ccccc2nc1SCC(=O)N1CCOCC1)N1CCOCC1	46.9%
CC(=O)C1=C(Nc2ccc(C)cc2)CC(C)(O)C(C(C)=O)C1c1ccco1 (centres undefined)	48.5%
O=C(Nc1ccc2c(c1)OCO2)N1CCN(C/C=C/c2ccccc2)CC1	51.6%
CCCC(=O)Nc1nnc(Sc2ccc(N(C)C)cc2)s1	-16.3%
O=C(CSc1nccc(=O)[nH]1)Nc1ccc(Br)c(Cl)c1	-17.3%
Cc1ccc(S(=O)(=O)N2CCC(C(=O)N3CCC[C@H]3C(=O)NCc3ccco3)CC2)cc1	20.4%
O=c1ccc2cc3c([nH]c4ccc(Br)cc43)oc-2c1O	-2.4%
CCOc1ccc(-c2nc(C#N)c(NCc3ccc4c(c3)OCO4)o2)cc1	-5.0%
COc1ccc(S(=O)(=O)N(CCc2ccccc2)CC(=O)NCCCO)cc1	146.1%
Clc1ccc(OCc2nn3c(C4CCCCC4)nnc3s2)cc1	71.5%
CCCCCCC(N)CC(=O)O (centres undefined)	-2.7%
O=C(Nc1ccc(S(=O)(=O)NCCc2ccccc2)cc1)c1ccc(Br)o1	-18.1%
CCOc1ccc(NC(=O)CSc2nnc(-c3ccncc3)n2CC2CCCO2)cc1 (centres undefined)	34.6%
CCCn1c(C)nc2c(NCCN3CCOCC3)nc(C)nc21	10.5%
COc1ccc(C2C(C(=O)c3sc(C)nc3C)=C(O)C(=O)N2CCN(C)C)cc1 (centres undefined)	-3.8%
CCC1(C(=O)OC)NC(c2ccccc2OC)C2C(=O)N(C)C(=O)C21 (centres undefined)	-13.0%
Cn1c(=O)c(-c2ccccc2)nc2cnc(Oc3ccccc3)nc21	2.2%
CC(Sc1sc(=S)sc1SC(C)C(=O)O)C(=O)O (centres undefined)	0.8%
O=C(Nc1ncccc1O)c1cccc(S(=O)(=O)N2CCc3ccccc32)c1	-6.7%
CCCOC(=O)C1[C@H]2C(=O)N(CC3CCCO3)C[C@]23C=C[C@H]1O3 (some centres undefined)	7.0%
O=C1NCCNC1(c1c[nH]c2ccccc12)C(F)(F)F (centres undefined)	2.8%
O=c1c(CCc2ccccc2)nc2cnc(N3CCOCC3)nc2n1Cc1ccc(F)cc1	-8.1%
O=C1CC[C@H](NC(=O)c2ccccc2)C(=O)N1	-3.2%[5.75 µM]
OCCN[C@@H]1c2cc(Cl)ccc2-c2c(Cl)cc(Cl)cc21	-3.8%[5.75 µM]

A second format for part of the listing above:
molecule,AmpC nodet inh
CCOc1ccc(NC(=O)CSc2nnc(-c3ccncc3)n2CC2CCCO2)cc1 (centres undefined),34.6%
CCCn1c(C)nc2c(NCCN3CCOCC3)nc(C)nc21,10.5%

New compounds follow.
SMILES	AmpC nodet inh
CC(C)C(c1nnnn1Cc1ccccc1)N(Cc1ccco1)Cc1cccs1 (centres undefined)	-12.4%
Nc1c(C(=O)NCCN2CCOCC2)c2nc3ccccc3nc2n1-c1ccc2c(c1)OCO2	133.2%
CC(=O)CC(=O)Nc1ccc2ccccc2c1	-7.2%[5.75 µM]
O=C(Cn1cnc2c(nnn2Cc2ccc(Cl)cc2)c1=O)NCc1ccco1	5.5%
Cc1cc(C(=O)COc2ncnc3sccc23)c(C)n1C1CC1	-4.3%
CC1Oc2ccccc2N(CC(=O)NCCc2ccccc2)C1=O (centres undefined)	13.9%
COC(=O)c1ccc(CSc2nnc(-c3ccncc3)n2Cc2ccccc2)o1	38.0%
O=C(Nc1ccccc1)N1CCCC2(CCN(C(=O)Oc3ccccc3)CC2)C1	28.0%
[O-][n+]1onc2c1CCc1nnc(-c3ccccc3)cc1-2	-9.3%
COc1cccc(/C=c2\sc3nc(-c4cccs4)nn3c2=O)c1OC	27.7%
COc1ccc(OC)c(S(=O)(=O)N2CCCCCC2)c1	6.4%
Cc1ccc(S(=O)(=O)N2CCCC2C(=O)NC2=NCCS2)cc1 (centres undefined)	-7.0%
O=C(Nc1nc2c(ccc3ccccc32)s1)c1ccco1	-6.6%
COc1ccc(-c2nnc3ccc(SCC(=O)NCC4CCCO4)nn23)cc1 (centres undefined)	-10.9%
COc1cc(C2C(C(=O)Nc3ccc(F)cc3)=C(C)Nc3nc(CCCO)nn32)cc(OC)c1OC (centres undefined)	36.1%
CCOC(=O)N1CCN(CC(=O)c2ccc3c(c2)CCN3)CC1	-1.7%
COc1nc(Cl)nc(Cl)c1Cl (tested in a mixture with another compound)	7.3%[5.75 µM]
c1ccc2c(c1)CNc1ccccc1O2	-17.4%
CCn1c(SCC(=O)N2CCCC2)nc2c(c1=O)SC(C)C2 (centres undefined)	13.1%
CS(=O)(=O)N(CC(=O)NCc1ccco1)c1ccc(Cl)c(C(F)(F)F)c1	23.8%
CCCCOn1c(C)c(C(=O)OCC)c2c3no[n+]([O-])c3ccc21	33.6%
CC1CN(c2nn3c(=O)c4ccccc4nc3c3ccccc23)CC(C)O1 (centres undefined)	142.7%
N#Cc1c2n(cnc1=O)CCCCC2	-4.3%
COc1ccccc1-c1nc(-c2ccccn2)no1	1.7%
O=S(=O)(/C=C/c1ccccc1)Nc1ccc(N2CCOCC2)cc1	-9.3%

In the list so far, these contain an aryl thioether with sulfur outside any ring:
SMILES	AmpC nodet inh
CCCCOc1ccc(-c2c(C#N)c(N)nc(SCC(N)=O)c2C#N)cc1	20µM*[single pt active]
CCOC(=O)c1ccc(CNC(=O)CSc2nnnn2-c2ccc(Cl)cc2)o1	25.0%
CCCn1c(=O)n(C)c(=O)c2c(SCc3cc(C(C)=O)ccc3OCC)nc(C3CC3)nc21	44.8%
CCCCCSc1nnc(-c2cc(Br)ccc2N)c(=O)[nH]1	-12.5%
O=C(CSc1nc2ccccc2nc1SCC(=O)N1CCOCC1)N1CCOCC1	46.9%
CCCC(=O)Nc1nnc(Sc2ccc(N(C)C)cc2)s1	-16.3%
O=C(CSc1nccc(=O)[nH]1)Nc1ccc(Br)c(Cl)c1	-17.3%
CCOc1ccc(NC(=O)CSc2nnc(-c3ccncc3)n2CC2CCCO2)cc1 (centres undefined)	34.6%
CC(Sc1sc(=S)sc1SC(C)C(=O)O)C(=O)O (centres undefined)	0.8%
COC(=O)c1ccc(CSc2nnc(-c3ccncc3)n2Cc2ccccc2)o1	38.0%
COc1ccc(-c2nnc3ccc(SCC(=O)NCC4CCCO4)nn23)cc1 (centres undefined)	-10.9%
CCn1c(SCC(=O)N2CCCC2)nc2c(c1=O)SC(C)C2 (centres undefined)	13.1%

Going on with the list.
SMILES	AmpC nodet inh
COc1ccc(C2=Nn3c(nnc3-c3ccc(OC)cc3)SC2)cc1	83.7%
Cc1ccc2c(c1)NCC(C(=O)NCc1ccccc1)O2 (centres undefined)	27.6%
COc1cc(Cl)c(S(=O)(=O)N2CCOCC2)cc1Cl	-2.0%
O=C(CSc1ncc(-c2ccccc2)n1CC1CCCO1)N1CCCCC1 (centres undefined)	39.4%
O=C(c1cccc(F)c1)N1CCC2(CC1)CCN(c1cccc(-c3ccccc3)c1)CC2	66.4%
Cc1ccc(OC(=O)CCC(=O)N2CCc3ccccc32)cc1	7.4%
O=S(=O)(c1ccccc1)N1CCSC1c1ccco1 (centres undefined)	0.0%
CC1=C(C(=O)Nc2ccccc2)C(c2cccnc2)n2nc(-c3cccnc3)nc2N1 (centres undefined)	19.7%
CC1=N[C@@](C)(COC(=O)[C@]2(C)N[C@](C)(CO)CO2)COC1=O	-8.2%[5.75 µM]
COc1ccc(N(CC(=O)Nc2cc(C)ccc2C)S(=O)(=O)c2c(C)nn(C)c2C)cc1	85.4%
N=c1cc(C2(O)CCCCC2)n2c(nc3ccccc32)s1	11.8%
Cc1c(N(C)C(=O)c2ccco2)c(=O)n(-c2ccccc2)n1C	-5.8%
O=C(CN1C(=O)C2C3C=CC(C3)C2C1=O)N1CC=C(c2ccccc2)CC1 (centres undefined)	53.7%
C=CCNC(=O)c1scc2c1CCCC2	-5.8%
COc1ccc2nc(COC(=O)c3ccco3)c(C(C)=O)[n+]([O-])c2c1	-16.2%
Nc1nc(CN2CCc3ccccc3C2)nc(Nc2ccccc2)n1	2.2%
CCOC(=O)c1sc(/N=C/Nc2nc(C)c(C(=O)OCC)s2)nc1C	17.7%
O=C(Nc1cccc(Cl)c1)N1CCN(C/C=C/c2ccccc2)CC1	49.8%
Cc1ccccc1NC(=O)NCc1ccco1	6.4%
O=P(C(c1ccc2c(c1)OCO2)N1CCOCC1)(N1CCOCC1)N1CCOCC1 (centres undefined)	-0.6%
COc1ccccc1N1CCN(S(=O)(=O)CC23CCC(CC2=O)C3(C)C)CC1 (centres undefined)	74.8%
O=C(CSC1=NC(=O)C(Cc2ccccc2)C(=O)N1)Nc1ncccn1 (centres undefined)	0.9%
Cn1cnnc1SCC(=O)OCN1C(=O)c2ccccc2C1=O	-1.9%
Cc1n[nH]c(C)c1Cc1ccc(C(=O)O)cc1	10.6%
Cc1nnc(SCC(=O)N2CCc3ccccc32)s1	8.0%
CC(C)(C)C(=O)CSc1nc2ncc(Br)cc2[nH]1	-1.9%
COc1ccccc1CNc1nc2nc(C)c(Cl)c(=O)n2[nH]1	-20.1%

Screening results from PubChem BioAssay.
